Vaccinia inh – blocks a specific stage of Vaccinia orthopoxvirus infection; Vaccinia-infected cells, mCherry/Venus stage reporter fluorescence; stronger effect = lower value; some inactives read as strong as hits; activity change (mCherry), % (test concentration not listed); 0.01% of 89,000 active; AID 1053133;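 active = mCherry past -33% and 40 or more points under the early reporter, replicates agreeing; inconclusive = past -33% without that gap or agreement; tested in A549 cells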;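 also: scaled between vehicle wells and reference inhibitor wells; 23 nL library stock went into each well; one replicate is shown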
Vaccinia inh Venus – further read-out of Vaccinia inh, marked with its call; activity change (Venus), %; measured here: Venus reporter, other viral stage;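 negative = less Venus signal; first of two replicates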
The depositor's hits bear a star.

The opening 2 entries, to show the layout:
For C[C@@H]1CN([C@H](C)CO)C(=O)CCCn2cc(nn2)CO[C@@H]1CN(C)S(=O)(=O)c1ccc2c(c1)OCCCO2 the results were Vaccinia inh 2.3 and Vaccinia inh Venus -5.4.
`COC(=O)C[C@@H]1CC[C@H]2[C@H](COc3ccc(NC(=O)C4CC4)cc3C(=O)N2C)O1` gave Vaccinia inh 9.5 and Vaccinia inh Venus 4.7.

The listing, previewed entries included:
For C[C@@H]1CN([C@H](C)CO)C(=O)CCCn2cc(nn2)CO[C@@H]1CN(C)S(=O)(=O)c1ccc2c(c1)OCCCO2 the results were Vaccinia inh 2.3 and Vaccinia inh Venus -5.4.
`COC(=O)C[C@@H]1CC[C@H]2[C@H](COc3ccc(NC(=O)C4CC4)cc3C(=O)N2C)O1` gave Vaccinia inh 9.5 and Vaccinia inh Venus 4.7.
For COc1ccccc1-c1cn(CC[C@@H]2CC[C@@H](NC(=O)C3CCCC3)[C@H](CO)O2)nn1 the results were Vaccinia inh -13.6 and Vaccinia inh Venus -8.9.
Screening CN1CCN(C(=O)C[C@@H]2C[C@H]3c4cc(NC(=O)NC5CCCCC5)ccc4O[C@H]3[C@H](CO)O2)CC1 returned Vaccinia inh -11.4 and Vaccinia inh Venus -4.8.
CCC(=O)N1[C@H](CN(C)C(C)=O)[C@H](c2ccc(-c3cccnc3)cc2)[C@@H]1CO was read as Vaccinia inh 4.7 and Vaccinia inh Venus 6.0.
O=C(Nc1cc(F)ccc1F)N1CCCCN2[C@H](CO)[C@H](c3ccc(-c4cncnc4)cc3)[C@H]2C1 was read as Vaccinia inh 32.7 and Vaccinia inh Venus 9.4.
For CO[C@@H]1CN(C)C(=O)c2ccc(NC(C)=O)cc2OC[C@H](C)N(Cc2nccs2)C[C@H]1C the results were Vaccinia inh 6.4 and Vaccinia inh Venus 3.3.
`CC(C)CC#Cc1cnc2c(c1)C(=O)N([C@H](C)CO)C[C@H](C)[C@@H](CN(C)Cc1ccccn1)O2` gave Vaccinia inh -6.1 and Vaccinia inh Venus -18.5.
For C[C@H](CO)N1C[C@H](C)[C@@H](CN(C)Cc2ccccc2)Oc2c(NC(=O)c3ccc(-c4nccs4)cc3)cccc2C1=O the results were Vaccinia inh -18.8 and Vaccinia inh Venus -10.1.
Screening C/C=C/c1ccc([C@@H]2[C@@H](CO)N(C(=O)CC)[C@@H]2CNC(=O)CC)cc1 returned Vaccinia inh -3.2 and Vaccinia inh Venus 3.9.
Screening COc1ccc(NC(=O)Nc2ccc3c(c2)CC(=O)N([C@H](C)CO)C[C@@H](C)[C@@H](CN(C)S(=O)(=O)c2cccs2)O3)cc1 returned Vaccinia inh -4.3 and Vaccinia inh Venus -4.9.
`COc1ccccc1NC(=O)N1CC(=O)N2[C@H](C1)[C@@H](c1ccc(C#CC(C)C)cc1)[C@@H]2CO` gave Vaccinia inh -19.8 and Vaccinia inh Venus -5.2.
For O=C(Nc1ccc(F)cc1)N1CCCCN2[C@H](CO)[C@@H](c3ccc(C#Cc4ccccn4)cc3)[C@H]2C1 the results were Vaccinia inh -9.8 and Vaccinia inh Venus -5.5.
For C[C@@H]1CCCCO[C@@H](CN(C)Cc2ccc(C(F)(F)F)cc2)[C@H](C)CN([C@@H](C)CO)C(=O)c2cc(NC(=O)CCCN(C)C)ccc2O1 the results were Vaccinia inh inconclusive.
CC=Cc1ccc2n(c1=O)C[C@@H]1[C@@H](CO)[C@H](C(=O)NCc3ccncn3)N(C(=O)C3CCCC3)[C@H]21 (mixture of isomers) was read as Vaccinia inh 21.5 and Vaccinia inh Venus 15.0.

Reprinted at random: four entries already listed.
For C[C@@H]1CN([C@H](C)CO)C(=O)CCCn2cc(nn2)CO[C@@H]1CN(C)S(=O)(=O)c1ccc2c(c1)OCCCO2 the results were Vaccinia inh 2.3 and Vaccinia inh Venus -5.4.
For C[C@H](CO)N1C[C@H](C)[C@@H](CN(C)Cc2ccccc2)Oc2c(NC(=O)c3ccc(-c4nccs4)cc3)cccc2C1=O the results were Vaccinia inh -18.8 and Vaccinia inh Venus -10.1.
`CC(C)CC#Cc1cnc2c(c1)C(=O)N([C@H](C)CO)C[C@H](C)[C@@H](CN(C)Cc1ccccn1)O2` gave Vaccinia inh -6.1 and Vaccinia inh Venus -18.5.
For CO[C@@H]1CN(C)C(=O)c2ccc(NC(C)=O)cc2OC[C@H](C)N(Cc2nccs2)C[C@H]1C the results were Vaccinia inh 6.4 and Vaccinia inh Venus 3.3.

(next part)
Screening C[C@@H]1CN([C@H](C)CO)C(=O)c2cc(C3=CCCC3)cnc2O[C@@H]1CN(C)Cc1ccccc1C(=O)O returned Vaccinia inh 23.2 and Vaccinia inh Venus 5.3.
Screening CC(C)NC(=O)Nc1ccc2c(c1)C(=O)N([C@@H](C)CO)C[C@@H](C)[C@H](CN(C)Cc1ccc(Cl)c(Cl)c1)OCCCC[C@@H](C)O2 returned Vaccinia inh inconclusive.
Screening C[C@@H]1CN([C@H](C)CO)C(=O)c2ccccc2-c2ccccc2CO[C@H]1CN(C)C(=O)Nc1ccccc1 returned Vaccinia inh 19.5 and Vaccinia inh Venus 18.2.
Screening CC(C)NC(=O)Nc1ccc2c(c1)C(=O)N([C@@H](C)CO)C[C@H](C)[C@@H](CN(C)CC1CCCCC1)O2 returned Vaccinia inh 7.3 and Vaccinia inh Venus 10.2.
COCC(=O)Nc1ccc2c(c1)OC[C@H](C)N(C(=O)c1cnccn1)C[C@@H](C)[C@H](OC)CN(C)C2=O was read as Vaccinia inh 11.4 and Vaccinia inh Venus 6.5.
CCCNC(=O)C[C@H]1CC[C@H]2[C@H](COc3ccc(NC(=O)C4CCCC4)cc3C(=O)N2C)O1 was read as Vaccinia inh 3.8 and Vaccinia inh Venus -1.1.
For C[C@@H]1CN([C@@H](C)CO)C(=O)c2cc(NC(=O)Nc3ccc(C(F)(F)F)cc3)ccc2O[C@H]1CN(C)Cc1ccc(-c2ccccc2)cc1 the results were Vaccinia inh -29.5 and Vaccinia inh Venus -29.8.
`COc1ccc2c3c([nH]c2c1)[C@@H](CO)N(C(=O)c1cccc(F)c1)CC31CCN(C(=O)c2cccc(F)c2)CC1` gave Vaccinia inh inconclusive.
Cc1ccc(S(=O)(=O)N[C@@H]2C=C[C@@H](CC(=O)O)O[C@H]2CO)cc1 was read as Vaccinia inh 4.3 and Vaccinia inh Venus 1.9.
`COCC#Cc1cnc2c(c1)C(=O)N([C@H](C)CO)C[C@@H](C)[C@H](CN(C)C(=O)Cc1ccccc1)O2` gave Vaccinia inh 22.9 and Vaccinia inh Venus 10.7.
Screening CCC(=O)N(C)C[C@@H]1Oc2cc(-c3ccc(F)cc3)ccc2S(=O)(=O)N([C@H](C)CO)C[C@H]1C returned Vaccinia inh -1.5 and Vaccinia inh Venus -0.7.
CCCNC(=O)N1[C@H](CO)[C@@H](c2ccccc2)[C@@H]1CNC(=O)c1cccc(F)c1 was read as Vaccinia inh 0.8 and Vaccinia inh Venus 7.2.
Cn1cnc(S(=O)(=O)N2C[C@@H](O)COC[C@H]3O[C@@H](CC(=O)NCc4ccc(F)cc4)CC[C@@H]32)c1 was read as Vaccinia inh 11.0 and Vaccinia inh Venus -0.2.
`CN(C)C(=O)c1cccc(-c2ccc3c(c2)[C@@H]2[C@@H](CCN2C(=O)C2CCCC2)[C@H](CO)N3)c1` gave Vaccinia inh inconclusive.
O=C(Nc1ccc(F)cc1)N[C@H]1C=C[C@@H](CC(=O)N2CCOCC2)O[C@H]1CO was read as Vaccinia inh -7.7 and Vaccinia inh Venus 2.5.
For CCc1cccc(NC(=O)O[C@H]2[C@H](OC(=O)Nc3ccccc3-c3ccccc3)[C@H](OC(=O)Nc3ccccc3-c3ccccc3)[C@@H](OC)O[C@@H]2CO)c1 the results were Vaccinia inh inconclusive.
For COc1ccc(NC(=O)N2C[C@H](O)COC[C@@H]3O[C@@H](CC(=O)N4CCN(C)CC4)CC[C@H]32)cc1 the results were Vaccinia inh 13.5 and Vaccinia inh Venus 11.2.
`CN(C)C(=O)C[C@@H]1C[C@H]2c3cc(NC(=O)C4CCOCC4)ccc3O[C@H]2[C@H](CO)O1` gave Vaccinia inh 1.6 and Vaccinia inh Venus -3.7.

3 compounds already listed, sorted by molar mass, ascending:
`COCC#Cc1cnc2c(c1)C(=O)N([C@H](C)CO)C[C@@H](C)[C@H](CN(C)C(=O)Cc1ccccc1)O2` gave Vaccinia inh 22.9 and Vaccinia inh Venus 10.7.
For C[C@@H]1CN([C@H](C)CO)C(=O)CCCn2cc(nn2)CO[C@@H]1CN(C)S(=O)(=O)c1ccc2c(c1)OCCCO2 the results were Vaccinia inh 2.3 and Vaccinia inh Venus -5.4.
For CCc1cccc(NC(=O)O[C@H]2[C@H](OC(=O)Nc3ccccc3-c3ccccc3)[C@H](OC(=O)Nc3ccccc3-c3ccccc3)[C@@H](OC)O[C@@H]2CO)c1 the results were Vaccinia inh inconclusive.

A portion of the library; the hit share may differ from the screen's.
